Source: PubChem BioAssay
HCMV UL50-53 inh = cytomegalovirus nuclear egress complex inhibition; HTRF UL50-UL53 interaction, normalized percent inhibition; inhibition, % (concentration not given with the values); 190,000 tested, 0.15% active;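 active = both replicates at 50% or more, plus weaker picks with an unusually low signal ratio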;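 note: stock transfer was 100 nL into about 20 µL; 0% = negative control wells and 100% = wells with untagged competitor protein; inactives centre near -12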
Sa growth inh = S. aureus growth inhibition; S. aureus RN4220 growth, OD600, 20 h, 42 °C; active compounds read low; relative growth, % (no concentration beside the values); 170,000 tested, 0.53% active; AID 720641;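 active = growth at 42 °C up to 50% and 20 or more points under that at 30 °C, or under 10% at both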;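 note: 300 nL library stock went into each well; scaled to the means of positive and negative controls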
GIV-Gai inh = inhibitors of GIV GBA-motif binding to rat Galpha-i3; P08753; Galpha-i3/FITC-GIV peptide fluorescence polarization, 90 min; active compounds read low; scaled: aluminum fluoride 0%, vehicle 100%; percent of control (FP), % (test concentration not listed); 210,000 tested, 0.42% active; AID 1224905;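 active = replicate mean at 85% of control or lower, very high polarization wells dropped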;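 note: lower values mean more displacement of the GIV peptide from Galpha-i3; wells of about 15 µL received 100 nL stock; the first replicate is given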
Target sequence (P08753 whole entry, looked up): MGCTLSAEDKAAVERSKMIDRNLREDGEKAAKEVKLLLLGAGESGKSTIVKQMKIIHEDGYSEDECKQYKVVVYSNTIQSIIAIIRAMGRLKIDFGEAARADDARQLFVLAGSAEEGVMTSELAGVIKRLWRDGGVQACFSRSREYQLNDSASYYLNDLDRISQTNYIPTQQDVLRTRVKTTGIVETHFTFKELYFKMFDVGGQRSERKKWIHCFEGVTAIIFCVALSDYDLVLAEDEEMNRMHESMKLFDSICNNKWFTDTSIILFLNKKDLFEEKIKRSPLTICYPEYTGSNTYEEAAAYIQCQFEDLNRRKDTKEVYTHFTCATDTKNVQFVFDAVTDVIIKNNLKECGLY
Sa growth inh second temp = further read-out of Sa growth inh, marked with its call; relative growth, %; measured here: growth at 30 °C;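 optical density after 20 h as mean of two plates; 100% = untreated growth and lower means inhibition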
Active calls of the source: *; / = no result given; & = joins results of further samples. Compounds were not picked by outcome. About 0.83% of those tested had a hit in this group.

SMILES	HCMV UL50-53 inh	Sa growth inh	Sa growth inh second temp	GIV-Gai inh
CCOc1ccccc1CNC(=O)c1cnn(-c2ccc(C)cc2)c1-n1cccc1	/	85	103	96
CC(=O)N1CCN(C2c3cccc4cccc(c34)C2NS(=O)(=O)c2ccccc2)CC1 (stereo not given)	4	106	82	107
N#CCN(CC#N)C(=O)c1sc2ccccc2c1Cl	2	103	87	/
COc1ccc(OC)c(NC(=O)c2sc3nc4c(cc3c2N)CCCCCC4)c1	-34	100	84	107
O=C(CSC1=Nc2ccccc2N=C(c2ccc(F)cc2)C1)Nc1ccc(Cl)cc1	/	103	91	110
CCN(c1ccccc1)c1ccc2cc(S(=O)(=O)N3CCCC3)ccc2n1	/	85	88	104
Cc1cc(C)c(NC(=O)CSc2nc(-c3ccc(F)cc3)nc3c2Cc2c(CO)cnc(C)c2O3)c(C)c1	/	102	90	98
NC(=O)c1ncn([C@@H]2O[C@H](CO)[C@@H](O)[C@H]2O)c1O	-25	/	/	103
O=C(Nc1ccc(-n2cnnn2)cc1)C1CCN(C(=O)/C=C/c2ccccc2)CC1	-2	107	97	/
O=c1c2c(-c3cccs3)csc2ncn1/N=C/c1ccccc1F	-21	96	94	/
COc1ccc(NC(=O)c2ccc3ccccc3c2OC)cc1	-13	98	89	/
CC(=O)Nc1ccc(NC(=O)c2cnn(-c3ccc(Br)cc3)c2)cc1	-26	/	/	100
O=C(/C=C1\SC(=O)NC1=O)Nc1ccccc1C(=O)O	-23	97	89	90
C/C(CCc1oc2ccc(C)cc2c1-c1ccc(C)o1)=N\O	-21	87	75	100
CS(=O)(=O)N(CC(=O)N1CCc2ccccc2C1)c1ccc(F)cc1	-9	111	73	107
Cc1cccc(C(=O)N2CCc3cc(CNS(=O)(=O)c4ccc(Cl)s4)ccc32)c1	/	118	87	101
c1ccc(Nc2c3c(nc4nncn24)CCC3)cc1	/	95	81	103
c1ccc(Nc2ncnc3sc(-c4ccccc4)cc23)cc1	-9	87	97	106
Fc1ccc(-c2csc(-c3ccsc3)n2)cc1	3	85	104	101
CCOC(=O)c1sc2c(c1C)C(c1cccs1)C1=C(CCCC1=O)N2 (stereo not given)	-20	86	85	/
N#CCO/N=C(\c1ccccc1)c1ccncc1	7	99	108	102
CC(C)CNC(=O)c1ccc(COc2cc(Cl)ccc2Cl)o1	-15	101	71	/
CCC1CN(C(=O)N2CCC(C(=O)NC)CC2)c2ccccc2O1 (stereo not given)	-12	95	90	107
Cc1ccc(C)c(C(=O)CN2C(=O)c3ccccc3C2=O)c1	-10	102	97	/
Cc1c(N2CCN(C(=O)c3[nH]nc4c3CCc3ccccc3-4)CC2)c(=O)n(C)c(=O)n1-c1ccccc1	-31	/	/	106
Cc1nc2ccc(NC(=O)C3CCCN3S(=O)(=O)c3cccs3)cc2s1 (stereo not given)	-34	99	88	105
COc1ccc(C)cc1S(=O)(=O)N(C)CC(N)=O	1	93	105	111
COc1cc(NC(=O)CCN2CCN(CCO)CC2)cc(OC)c1	13	100	106	100
O=C1c2ccccc2C(=O)N1/N=C/c1ccccc1	-2	68	90	/
C=CCn1c2ccccc2c2nnc(SC(CC)C(=O)Nc3nc4c(s3)CCCC4)nc21 (stereo not given)	/	78	75	112
CCC(C(=O)Nc1ccccc1OC)n1nc(-c2ccccc2)ccc1=O (stereo not given)	-18	/	/	100
COc1ccc(NC(=O)C2CCCCN2)cc1OC (stereo not given)	-6	113	83	109
O=C(NCCCc1nc2ccccc2n1Cc1ccc(F)cc1)C1CCCCC1	-17	97	82	107
COc1cc2nc(CN3CCN(S(=O)(=O)c4ccc5ccccc5c4)CC3)[nH]c(=O)c2cc1OC	-2	87	101	/
O=C(COC(=O)C1CCCCC1)Nc1ncccn1	-59	85	75	/
CC1CCCCN1Cc1cc(=O)n2[nH]c(-c3ccc(Cl)cc3)nc2n1 (stereo not given)	9	/	/	101
COCCN1C(=O)c2ccccc2C(C(=O)N2CCN(c3ccccn3)CC2)C1c1ccc(F)cc1 (stereo not given)	/	95	86	101
CN(Cc1ccccc1)C(=O)CCn1c(=O)c2cccn2c2cccnc21	-25	92	86	101
COc1ccc(-c2cc(C(=O)NCc3cccs3)c(C(F)(F)F)o2)cc1	-26	90	86	106
COc1cc(C=C2C(=O)NC(=O)NC2=O)cc(Cl)c1OCCOc1cccc(C)c1	44*	/	/	86
COCCN(CCOC)S(=O)(=O)c1ccc(C(=O)Nc2nc3ccc(OC)cc3s2)cc1	4	/	/	107
COc1ccc2nc(SCC(=O)Nc3cccc(NC(=O)CSc4nc5ccc(OC)cc5[nH]4)n3)[nH]c2c1	-4	/	/	105
Cc1ccc(SCCNC(=O)CN(c2ccccc2)S(=O)(=O)N(C)C)cc1	-52	92	86	102
CN(Cc1ccccc1)S(C)(=O)=O	-9	110	83	/
COC(=O)c1cc2oc3ccccc3c2n1Cc1nc(-c2ccccc2C)oc1C	-7	102	90	109
Cc1ccc2c(c1)nnn2C1CCN(C(=O)N(c2ccccc2)c2ccccc2)CC1	-4	107	71	107
Cc1ccc(CN2CCSc3ccc(C(=O)NCCCN4CCOCC4)cc32)cc1	3	100	85	98
CCN1C(=O)/C(=C2\SC(=S)N(c3ccc(Br)cc3)C2=O)c2ccccc21	-5	/	/	105
CCOCCCn1c(=N)c(C(=O)NC(C)c2ccccc2)cc2c(=O)n3cccc(C)c3nc21 (stereo not given)	-114	98	101	110
O=S(=O)(Nc1cccc(-c2nnco2)c1)c1ccc(F)cc1F	-3	102	79	100
CC(C)CC(=O)Nc1ccc(-c2cn3cccnc3n2)cc1	-106	94	87	106
O=C(CN1C(=O)c2ccccc2C1=O)NCc1ccccn1	/	97	87	100
COc1ccc(NC(=O)c2ccc(C)c(NC3=NC4CS(=O)(=O)CC4S3)c2)cc1Cl (stereo not given)	-15	/	/	101
C=CCn1c(CCCO)n[nH]c1=S	-1	106	92	/
Cn1c(O)c(C=Nc2ccccc2)c(=O)[nH]c1=S	0	106	95	110
O=C(c1ccc(N2CCN(c3ccccc3F)CC2)nn1)N1CCc2ccccc21	-17	/	/	104
OCCNc1nc(-c2ccccc2)c(-c2ccccc2)s1	12	77	100	/
CCOC(=O)c1c(C)oc2nc(C)nc(NCCc3ccc(SC)cc3)c12	/	112	93	110
CCOC(=O)C1CCN(c2cnn(-c3nc4ccccc4s3)c(=O)c2Cl)CC1	-39	86	85	97
COc1cccc2sc(N(Cc3cccnc3)C(=O)COc3ccccc3)nc12	/	103	90	98

Rewritten field by field: entries from further up
O=S(=O)(Nc1cccc(-c2nnco2)c1)c1ccc(F)cc1F
  HCMV UL50-53 inh: -3	Sa growth inh: 102	Sa growth inh second temp: 79	GIV-Gai inh: 100
CC(C)CC(=O)Nc1ccc(-c2cn3cccnc3n2)cc1
  HCMV UL50-53 inh: -106	Sa growth inh: 94	Sa growth inh second temp: 87	GIV-Gai inh: 106
O=C(CN1C(=O)c2ccccc2C1=O)NCc1ccccn1
  HCMV UL50-53 inh: /	Sa growth inh: 97	Sa growth inh second temp: 87	GIV-Gai inh: 100
COc1ccc(NC(=O)c2ccc(C)c(NC3=NC4CS(=O)(=O)CC4S3)c2)cc1Cl (stereo not given)
  HCMV UL50-53 inh: -15	Sa growth inh: /	Sa growth inh second temp: /	GIV-Gai inh: 101

Additional entries.
SMILES	HCMV UL50-53 inh	Sa growth inh	Sa growth inh second temp	GIV-Gai inh
O=C(Cn1cnc(S(=O)(=O)N2CCCCC2)c1)N1CCN(c2ccccn2)CC1	-10	/	/	104
Cc1ccc(NC(=S)N(CC(N)=O)C(C)C)cc1C	-19	50	14	/
O=C(/C=C/c1cccc(F)c1)OCc1c(Cl)nc2sccn12	-7	116	94	/
Cc1cc(C(=O)OCC(=O)N2CC(C)CC(C)C2)c(C)o1 (stereo not given)	-33	98	88	/
C=CCSc1nc2c(c(=O)[nH]1)C(c1cc(Br)ccc1OC)CC(=O)N2 (stereo not given)	-5	/	/	105
Cc1ccc2c(c1)c1c3n2CCN(C(=O)CN2CCN(C(=O)c4ccco4)CC2)C3CCC1 (stereo not given)	-19	107	39	105
CCOc1ccc2c(c1)cc(C(=O)NCCOC)n2C	-15	/	/	95
Cc1ccccc1-c1noc(-c2ccc(NC3CCCC3)c([N+](=O)[O-])c2)n1	0	108	84	102
Cc1ccccc1C(=O)Nc1cccc(-c2cn3cccnc3n2)c1	/	100	94	108
Cc1ccc(-n2nc3c(c2NC(=O)c2ccc(S(=O)(=O)N4CCCCC4)cc2)CSC3)c(C)c1	6	/	/	103
COc1ccc(N=Cc2ccc(-c3ccccc3)o2)cc1	-54	100	86	116
CCCCOC(=O)c1ccc(NC(=O)/C(C#N)=C/c2ccc(-c3ccccc3)o2)cc1	-34	91	83	129
O=C(Cn1c(=O)ccc2cc(S(=O)(=O)N3CCCC3)ccc21)Nc1ccc(Cl)cc1	/	106	87	98
Oc1cccc(C=Nc2ccc(OC(F)(F)F)cc2)c1O	-10	96	96	96
CC(Sc1nc2nc[nH]c2c(=O)[nH]1)C(=O)O (stereo not given)	3	/	/	99
COc1cccc(NC(=O)c2c(N3CCCC3=O)c3cc(C)ccc3n2C)c1	/	97	78	102
CC(Sc1ncc(S(=O)(=O)c2ccccc2)c(N)n1)C(=O)Nc1ccccc1 (stereo not given)	/	94	78	99
CCOc1ccc(OCC)c(S(=O)(=O)n2cnc3cc(C)c(C)cc32)c1	-3	100	86	108
C=CCn1c(SCC(=O)NC(C)(C)C)nnc1-c1ccco1	-5	112	84	96
N#Cc1c(F)cccc1N1CCN(c2ccc(O)cc2)CC1	-14	71	79	/
O=S(=O)(NCC1CCCO1)c1ccc(N2CCCCS2(=O)=O)cc1 (stereo not given)	-9	/	/	109
NCCCNCCSP(=O)(O)O	-5&-24	92	87	99&104
CCOC(=O)c1ccccc1NC(=O)CN(c1cccc(C)c1C)S(=O)(=O)c1ccccc1	23	103	104	105
C=CCn1c(=O)c(C(=O)Nc2ccc(F)cc2F)c(O)c2ccccc21	4	/	/	101

Quoted from the listing.
COc1cccc(NC(=O)c2c(N3CCCC3=O)c3cc(C)ccc3n2C)c1 in GIV-Gai inh is entered as 102
C=CCn1c(SCC(=O)NC(C)(C)C)nnc1-c1ccco1 in Sa growth inh is entered as 112
CCN(c1ccccc1)c1ccc2cc(S(=O)(=O)N3CCCC3)ccc2n1 in Sa growth inh second temp is entered as 88
O=C(Cn1cnc(S(=O)(=O)N2CCCCC2)c1)N1CCN(c2ccccn2)CC1 in HCMV UL50-53 inh is entered as -10
O=C1c2ccccc2C(=O)N1/N=C/c1ccccc1 in Sa growth inh is entered as 68
COc1ccc(NC(=O)C2CCCCN2)cc1OC (stereo not given) in GIV-Gai inh is entered as 109
CN(Cc1ccccc1)C(=O)CCn1c(=O)c2cccn2c2cccnc21 in Sa growth inh second temp is entered as 86

The list goes on:
SMILES	HCMV UL50-53 inh	Sa growth inh	Sa growth inh second temp	GIV-Gai inh
O=C1CS(=O)(=O)C2(C(=O)Nc3ccccc32)N1c1cccc(Cl)c1 (stereo not given)	/	101	84	105
COc1ccc(-c2csc(NC(C)=O)n2)cc1C	12	88	100	/
Cc1cc(C)n(CC(=O)NCCCc2ccccc2)c(=O)c1-c1nc(-c2ccc(Cl)cc2)no1	10	/	/	106
CCOC(=O)c1c(CN2CCOCC2)n(C)c2ccc(OC)c(S(=O)(=O)c3ccccc3)c12	10	/	/	106&98
O=C(Nc1ccc2c(c1)OCO2)c1ccc2noc(-c3ccc(Cl)cc3)c2c1	-22	/	/	99
CCCn1c(=O)c2ccc(C(=O)NC(C)C)cc2n2c(=O)n(CC(=O)c3ccc(OC)cc3)nc12	-13	/	/	103
CCOC(=O)c1c(NC(=O)CSc2nnc(N)s2)sc2c1CCCC2	-11	90	97	/
Cn1c2ccccc2c2nnc(SCC(=O)OCN3C(=O)c4ccccc4C3=O)nc21	-21	82	84	93
NNC(=O)C1(O)c2ccccc2-c2ccccc21	-16	94	84	/
COc1ccc(OC)c(-n2cnc3cc(C(=O)NC4CCCC4)ccc32)c1	/	111	84	104
Cc1ccc(-c2nn(CCC(=O)O)cc2CCC(=O)O)cc1	-15	89	85	/
COc1cccc(NC2=C(C#N)C(=O)NC(c3cccc(OC)c3O)S2)c1 (stereo not given)	-12	84	87	105
C=Cn1c(C(=O)O)ccc1-c1ccc(OC)cc1	-33	122	117	109
OC(c1cn2cc(-c3ccccc3)nc2s1)(C(F)(F)F)C(F)(F)F	-19	64	71	/
O=C(NC1CC1)c1cc2n(n1)CCCN(Cc1ccc(Cl)cc1)C2=O	-22	/	/	103
Cc1ccc2c(c1)NC(SCC(=O)NC(C)C)=NS2(=O)=O	-38	107	91	101
COC(=O)CN(C#N)c1nc(SC)nc(N(C)C)n1	2	86	115	98
CCCSc1nc2c(c(=O)[nH]1)C(c1ccc(C)cc1)C(C(=O)OC)=C(C)N2 (stereo not given)	-18	/	/	103
COc1cccc(NS(=O)(=O)c2ccc(-c3cc(C)no3)s2)c1	/	115	98	103
O=C(CN1NS(=O)(=O)c2ccccc2C1=O)Nc1ccccc1OC(F)F	-16	94	91	/
O=C(CCS(=O)(=O)c1cc2c(cc1Cl)NC(=O)CO2)NCc1ccc(Cl)cc1	/	135	87	102
CC1CCN(S(=O)(=O)c2ccc3c(ccn3CCC(=O)NC(C)C)c2)CC1	-16	95	88	106
COc1ccc(-c2oc3ncn(CCO)c(=N)c3c2-c2ccc(OC)cc2)cc1	/	106	87	114
COCc1cc(C)nc2sc(C(=O)c3ccc(Cl)cc3Cl)c(N)c12	-19	/	/	102
